Screens from PubChem.
MgrA DNA FP = S. aureus MgrA-DNA binding modulation | fluorescence polarization | inhibition, %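 (about 10 µg/mL by stock and volumes)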 | 84,000 compounds, 0.13% hits | AID 602314;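 active = above 50% in either of two replicates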;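 also: 0% = protein plus DNA without compound and 100% = DNA alone without protein; higher means less MgrA bound to DNA so lower polarization; one replicate is shown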
Sa helicase inh = blocks Staphylococcus aureus DNA helicase; AID 485395; inhibition, %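 (tested at about 80 µM)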; purified S. aureus helicase, fluorescence unwinding assay; about half of the hits fall short of the stated cut; 120,000 compounds, 0.05% hits;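 active = both duplicates at 50% or more, or one of them with a favoured structure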;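 also: 0% = mean of negative control wells and 100% = mean of positive control wells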
* marks the source's active call; other numbers are inactive results; . = no result given; & = joins results of further samples. This is a subset, so the mix of outcomes need not match the whole.

no. | MgrA DNA FP | Sa helicase inh | Compound
1 | . | 3 | Cc1cc(OCCCC(=O)NC2=NCCS2)ccc1Cl
2 | . | 5 | COc1ccc(C(=O)OCC(=O)c2cc(OC)ccc2OC)cc1
3 | . | 14 | COc1cccc2c(=O)n(CC(=O)Nc3ccccc3)ccc12
4 | -1.1 | . | O=C1NCCN=C(c2ccccc2)c2ccccc21
5 | 0.0 | . | O=C(NC1CC1)c1cnn(-c2ccc(Cl)cc2)c1C(F)(F)F
6 | . | 11 | Cc1ccc(OCC(=O)N2CCCc3ccccc32)cc1
7 | -0.2 | -17 | Cc1c(Cl)cccc1NCC(=O)N1CC2(C)CC1CC(C)(C)C2 (stereo not drawn)
8 | 1.8 | . | COc1ccccc1NC(=S)C(C#N)C(=O)N1CCCC1 (stereo not drawn)
9 | . | -15 | Cc1ccccc1N(C)C(=O)Cn1ncc2c1-c1ccccc1OC2
10 | 0.1 | -18 | O=C(OCC1COc2ccccc2O1)c1ccc(Br)cc1 (stereo not drawn)
11 | -0.2 | . | O=C(c1ccccc1)C1CCN(C(=O)c2ccco2)CC1
12 | -0.3 | -11 | Cc1cc(/C=C(/C#N)c2ccc(F)cc2)c(C)n1Cc1ccccc1
13 | -0.5 | -2 | Fc1ccc2nc(Nc3nnc(-c4ccco4)o3)sc2c1
14 | -1.1 | 13 | Cc1ccc2oc(=O)c3cnn(CC(=O)N4CCCCC4)c3c2c1
15 | 1.0 | . | CC1(C)CN(C(=S)Nc2cccc(Cl)c2)C1=O

Additional entries
no. | MgrA DNA FP | Sa helicase inh | Compound
16 | . | 10 | CC(C)C(NCc1c(Cl)cccc1Cl)C(=O)O (stereo not drawn)
17 | . | -5 | O=C(c1ccc(-n2nc(C(F)(F)F)c3c2-c2ccoc2CC3)cc1)N1CCc2ccccc21
18 | 2.2 | 1 | O=C(Nc1ccc(Cl)cn1)c1cccc(S(=O)(=O)N2CCCCCC2)c1
19 | . | 10 | Cc1nn(-c2ccccc2)c2c1N(C(=O)CCC(=O)NC1CCCCCC1)CCS2
20 | . | -15 | CCSC1=C(C#N)C(c2ccccc2OC)C(C#N)C(=O)N1 (stereo not drawn)
21 | 0.3 | 10 | CCOC(=O)C1C(=O)C=C(c2ccc(C)cc2)CC1c1ccc(CC)cc1 (stereo not drawn)
22 | -6.8 | . | On1c(-c2cccc(F)c2)nc2c1CCc1nonc1-2
23 | -3.6 | -3 | CC(Oc1ccc(/C=C(/C#N)C(=O)N2CCOCC2)cc1)C(=O)O (stereo not drawn)
24 | 0.0 | . | Cc1nc(SCC(=O)c2ccc(Br)cc2)c(C#N)c(C)c1C
25 | . | -3 | CCS(=O)(=O)NCC(c1ccc(N(C)C)cc1)N1CCc2ccccc21 (stereo not drawn)
26 | -0.8 | 25 | Cc1cc(OCc2ccc(/C=C(/C#N)S(=O)(=O)c3ccccc3)o2)ccc1Cl
27 | . | -10 | Cc1cc(C(F)(F)F)nn1CC(N)=O
28 | 0.0 | 11 | COc1ccccc1CC(=O)NCC1OCCc2ccccc21 (stereo not drawn)
29 | . | -20 | CCC(=O)c1c(C)oc2ncnc(Nc3ccc(CCO)cc3)c12
30 | . | 28 | COc1ccc(CN(C(=O)Nc2ccccc2)C2CC2)cc1

Next structures follow.
no. | MgrA DNA FP | Sa helicase inh | Compound
31 | . | 17 | Cc1nn(-c2ccccc2)c2nc(-c3ccccc3)cc(C(=O)N3CCOCC3)c12
32 | 4.4 | 2 | CCn1c(C)cc(/C=C2/NC(=O)N(c3ccccc3)C2=O)c1C
33 | 2.1 | 7 | O=C(COCC(=O)N1CCCC1)N1CCCC1
34 | . | 15 | O=C(CSc1nccn1-c1ccc(Cl)cc1)NCCc1ccccc1
35 | 1.2 | 1 | CC(Oc1ccc(Br)cc1)C(=O)NN (stereo not drawn)
36 | . | 1 | CC1CN(CCC(=O)Nc2ccc(S(N)(=O)=O)cc2)CC(C)O1 (stereo not drawn)
37 | -9.8 | 6 | CCOC(=O)C(C)Nc1n[nH]c(=O)[nH]c1=O (stereo not drawn)
38 | . | -24 | C=C(C)CNC(=S)NN
39 | . | -23 | CSC1=C(C#N)C2(CCCCC2)C(c2nc(-c3ccc(C)cc3)cs2)C(N)=N1 (stereo not drawn)
40 | . | 12 | CC1SCC(=NOCc2ccccc2)CS1 (stereo not drawn)
41 | 1.5 | . | CC(=O)c1cc(Br)ccc1OC(=O)c1c(-c2c(Cl)cccc2Cl)noc1C
42 | . | 15 | CCCOCC(O)CN1CCCCC1 (stereo not drawn)
43 | . | -19 | Cc1nc2nc(CN)nn2c(C)c1CCC(=O)NCC1CCN(Cc2ccc(F)cc2)CC1
44 | 1.1 | 8 | C[N+]1(Cc2cn3ccccc3n2)CCOCC1
45 | -0.3 | . | c1ccc(N2CCN(c3c4c(nc5ncnn35)CCC4)CC2)cc1

Other records
no. | MgrA DNA FP | Sa helicase inh | Compound
46 | -1.4 | 8 | CC1CC2c3cccc(C(=O)O)c3C(=O)N2c2ccc(F)cc21 (stereo not drawn)
47 | -1.8 | 0 | CCC(C)NC(=O)c1cc(-c2cccc(OC)c2)no1 (stereo not drawn)
48 | . | -7 | O=C(CCC(=O)N1CCc2ccccc2C1)c1ccccc1
49 | -1.9 | 9 | Cc1ccc2c(c1)cc(CN(Cc1ccc3c(c1)OCO3)S(=O)(=O)c1ccccc1)c1nnnn12
50 | . | 1 | CCOc1ccc(N=c2scc(-c3ccc4c(c3)NC(=O)CO4)n2C2CC2)cc1
51 | -0.8 | 27 | Cc1nc2ccccc2c(C)c1C(=O)Nc1ccc(Cl)cc1
52 | . | -2 | O=S(=O)(c1ccccc1)c1nnn2c1nc(N1CCCC1)c1sccc12
53 | . | -19 | COC(=O)c1ccc2c(=O)[nH]c(COC(=O)c3cnc(C)cn3)nc2c1
54 | . | 7 | CN(C)c1ccc(CNCc2ccco2)cc1
55 | . | 5 | Clc1ccc(-c2noc(COc3ccc4c(c3)OCO4)n2)cc1
56 | -0.8 | 9 | CC(C)(C)c1ccc(-c2nc3ccccc3s2)cc1
57 | . | 1 | CC(=O)Nc1ccc(S(=O)(=O)NCC2CCC(C(=O)NC(C)c3ccc4c(c3)OCCO4)CC2)cc1 (stereo not drawn)
58 | . | 9 | Cc1ccc2c(c1)c1nc3ccccc3nc1n2CC(=O)OC(C)C
59 | . | -19 | C/S(=N\S(=O)(=O)c1cccc2nonc12)c1ccc(C(F)(F)F)cn1 (stereo not drawn)
60 | -1.6 | 3 | Cn1c(CNS(=O)(=O)c2ccc3c(c2)OCCO3)nnc1SCc1cccnc1

(next part)
no. | MgrA DNA FP | Sa helicase inh | Compound
61 | 2.9 | . | N#Cc1cc([N+](=O)[O-])ccc1SCc1ccccc1
62 | 2.1 | 24 | C/C(=C\C(=O)c1ccc(Cl)cc1)N1CCOCC1
63 | -0.1 | 13 | CC(C)(C)c1ccc(C(=O)N/C(=C/c2cccs2)C(=O)N2CCOCC2)cc1
64 | 8.2 | 6 | O=C(O)CCn1c2ccccc2c2cn[nH]c(=O)c21
65 | 0.8 | 3 | On1ccc2c(Br)cncc21
66 | -0.6 | 18 | CCCCN1C2CCCC1CC(NC(=O)C1CCCCC1)C2 (stereo not drawn)
67 | . | -24 | Cc1ccc(C)n1CC(N)=O
68 | . | 4 | Cc1ccc(C)c(-n2c(SCc3cn4ccccc4n3)nnc2-c2cc3sccc3n2C)c1
69 | . | 14 | O=C(NCC12CC3CC(CC(C3)C1)C2)c1cc(-c2ccccc2F)no1
70 | 4.8 | 19 | CC(C)CCNCc1c(C(=O)O)n(Cc2ccccc2)c2ccccc12
71 | . | 1 | CCCNC(=O)CSc1nnc2n(-c3ccccc3)c(=O)c3ccccc3n12
72 | . | -12 | Cc1ccc(-c2nn(-c3ccccc3)cc2C(=O)N2CCOCC2)cc1
73 | 1.9 | 6 | COc1ccccc1OCC(O)CN (stereo not drawn)
74 | 0.2 | 4 | COc1ccc2oc(=N)c(C(N)=O)cc2c1
75 | . | 4 | Cc1ccc2c(CN3C(=O)c4ccccc4C3=O)cc(=O)oc2c1

Next section:
no. | MgrA DNA FP | Sa helicase inh | Compound
76 | 8.1 | 8 | Cc1cc(C)n(-c2nc(NC(C)C)nc(NC(C)(C)C)n2)n1
77 | -0.4 | . | C=C(C#N)CN1CCN(CC(=C)C#N)CC1
78 | -0.7 | . | Cc1nc(N)c(Cc2ccc(Cl)cc2Cl)c(N)n1
79 | . | -8 | COc1ccc(Cl)cc1S(=O)(=O)N1CCCCCC1
80 | . | 25 | O[C@@H]1C2C3CC4C5C3C1C(c1ccccc1)(C42)[C@H]5O (stereo partly drawn)
81 | -1.7 | 2 | C=CCN=C1SCC(=O)N1S(=O)(=O)c1ccc(C)cc1
82 | 1.2 | 19 | N#CC(C(=O)COc1ccccc1)c1nc2ccccc2[nH]1 (stereo not drawn)
83 | . | -4 | CSCc1ccc(C(=O)N2CCN(C(=O)c3ccccc3)CC2)cc1
84 | -5.0 | 9 | O=C(O)CCCn1cnc2ccccc2c1=O
85 | 1.1 | . | Cc1[nH]n(-c2ccccc2)c(=O)c1C(=O)c1ccccc1
86 | -0.2 | 8 | CC1CN=C(N(C)C(=O)Nc2cccc(Cl)c2)S1 (stereo not drawn)
87 | 0.0 | 5 | CC1(C)N=C2C(=[N+]1[O-])CCC/C2=N/O
88 | -0.3 | 0 | Cc1nc2c(C)cccn2c1/C(O)=C1\C(=O)C(=O)N(CCN(C)C)C1c1cccnc1 (stereo not drawn)
89 | -0.2 | 7 | O=C(Nc1ccccc1OC(F)F)c1ccccc1
90 | -2.4 | . | COc1cc(/C=C2\SC(=O)N(CC(=O)Nc3ccc(C)cc3C)C2=O)cc(OC)c1OC

(next part)
no. | MgrA DNA FP | Sa helicase inh | Compound
91 | -6.9 | 14 | COCC(C)NCc1cccc(Br)c1 (stereo not drawn)
92 | . | 4 | COc1cc2nc(-c3ccccc3)oc(=O)c2cc1OC
93 | -0.5 | 9 | O=C(Nc1ccccn1)c1cc2ccccc2o1
94 | . | 11 | Cc1cc(C)nc(-n2ncc(Cl)c(Cl)c2=O)n1
95 | 4.4 | 18 | CCc1ccc(NC(=O)Cc2cn(C)c3ccccc23)cc1
96 | . | 15 | CCCc1cnc(N2CCN(CC(=O)Nc3ccc4c(c3)OCCO4)CC2)nc1
97 | . | -3 | CCOC(=O)NCc1ccc2c(c1)OCO2
98 | . | -4 | O=C(COC(=O)c1cccc(S(=O)(=O)NCc2ccco2)c1)Nc1ccccc1
99 | -1.5 | 11 | COc1ccc(-c2[nH]nc3oc(=O)cc(C)c23)cc1
100 | . | -23 | O=C(c1ccco1)N1CCN(c2nc3ccccc3s2)CC1
101 | -4.9 | . | FC(F)(F)c1nnc(-c2ccccc2)nc1Oc1ccccc1
102 | 1.8 | 13 | Cc1ccc2c(Sc3ccc(Cl)cc3)c(C(=O)NC(C)c3ccc4c(c3)OCCO4)[nH]c2c1 (stereo not drawn)
103 | 0.1 | 6 | O=C(CSc1nc2ccccc2c(=O)n1Cc1ccco1)Nc1ccccc1
104 | . | 3 | O=C(COC(=O)c1ccccc1)NCc1ccc2c(c1)OCO2
105 | 0.6 | 1 | Nc1cc(N)nc(SCC(=O)N2c3ccccc3Sc3ccccc32)n1

Next section.
no. | MgrA DNA FP | Sa helicase inh | Compound
106 | -0.9 | 7 | N#CCCn1cc(C2CC(c3ccccc3)=NNC2=O)c2ccccc21 (stereo not drawn)
107 | . | 32 | CC(C)(C)c1ccc2c(c1)CN(Cc1ccccc1)CO2
108 | . | -16 | COC(=O)C1=C(NC(=O)CSCc2ccccc2)CCS1
109 | . | -12 | Cc1c(Sc2nc3ccccc3[nH]2)c(=O)[nH]c2cc3c(cc12)OCO3
110 | . | -6 | CCOC(=O)c1c(NC(=O)C2CC2)sc2c1CCC2
111 | -1.3 | -5 | O=C(O)C1CCCN1C(=O)Nc1ccccc1 (stereo not drawn)
112 | 0.0 | . | CC(=O)Nc1ccc(C2=N/C(=C/c3cn(C(C)=O)c4ccccc34)C(=O)O2)cc1
113 | . | 8 | COc1ccc(Cl)cc1NC(=O)/C(C)=C\C(=O)O
114 | . | 5 | COc1ccc(-c2[nH]ncc2C(=O)NCc2ccccc2)cc1
115 | -2.0 | . | Clc1cccc(Cl)c1CSC1=NCCCN1C1CCCCC1
116 | 3.3&-0.4 | . | O=C(O)C1Cc2c([nH]c3ccccc23)CN1 (stereo not drawn)
117 | -1.9 | 17 | Cc1cc(C)n(C(=O)c2ccc(-c3ccccc3)cc2)n1
118 | 3.4 | . | Cc1ccccc1C(=O)On1c(-c2ccc(Cl)c([N+](=O)[O-])c2)nc2ccccc2c1=O
119 | . | 6 | N#CC(C#N)=C/C=C(\Sc1nnnn1-c1ccccc1)c1ccccc1
120 | . | 1 | CCC1CCCCN1C(=O)CSc1nc2c(c(=O)n1-c1ccccc1)SCC2 (stereo not drawn)

Further entries follow.
no. | MgrA DNA FP | Sa helicase inh | Compound
121 | 2.0 | . | O=C(c1ccncc1)N1N=C(c2c(-c3ccccc3)c3cc(Br)ccc3[nH]c2=O)CC1c1ccccc1 (stereo not drawn)
122 | 0.6 | 5 | CC(=O)N1CC(C)Sc2cc(S(=O)(=O)Nc3cccc(Cl)c3)ccc21 (stereo not drawn)
123 | . | -9 | Cc1noc(C)c1C(=O)OC(C)C(=O)Nc1ccc(S(=O)(=O)NC(C)C)cc1 (stereo not drawn)
124 | 2.4 | . | COC(=O)c1cc(/C=C/C(=O)N(C(=O)NC2CCCCC2)C2CCCCC2)cn1C
125 | . | 19 | O=C(CN1C(=O)c2ccccc2C1=O)Nc1ccc2c(c1)OCO2
